# High-throughput results (PubChem BioAssay)
# Calb FLC: C. albicans growth modulation with fluconazole. hit rate 0.57% among 300,000. growth inhibition, % (no concentration beside the values). AID 1979. C. albicans CaCi-2 (fluconazole-resistant clinical isolate) + fluconazole, Alamar Blue growth, 48 h;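 active means most replicates above 75%; inconclusive means exactly half above 75%; inactive means most below 75%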;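 further: all wells also contain fluconazole at 8 µg/ml as a sub-toxic cotreatment; 0% = median of DMSO wells and 100% = median of geldanamycin control wells; wells of about 8 µL received 7.5 nL stock; the first replicate is given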
# ALR H2O2 inh: inhibitors of human sulfhydryl oxidase ALR; purified ALR, DTT oxidation, H2O2 HRP-luminol luminescence; inhibition, % (no concentration beside the values); hit rate 3.8% among 290,000; AID 485317;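 active means mean and each replicate at 75% or more; inconclusive means only one of the two met; inactive means neither met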;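 further: stock transfer was 7.5 nL into about 7.5 µL; 0% = neutral wells and 100% = wells with inactivated enzyme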
# HNF4A DNA FP: change in binding of human HNF4 alpha to DNA; P41235; HNF4a-FITC DNA binding, fluorescence polarization, 1 h; activity change, % at 10 µM; hit rate 0.3% among 360,000; in the data active means activity change above about 30%, passing the limit was not always enough;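 further: controls were the assay level and a saturating level of protein; the project sought stronger binding though the title names inhibitors; some compounds called inactive have numbers as strong as hits; positive values seem to mean higher polarization but the record does not say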
# RanGTP-Impb inh: disruptors of Ran-importin-beta complex formation – biochemical, FRET, CFP-Ran, YFP-importin-beta, homogeneous, primary screen. cell-free CFP-Ran/YFP-importin-beta FRET ratio. inhibition, % (test concentration not listed). hit rate 1.1% among 300,000. AID 2216;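 active means most replicates above 15%; inconclusive means exactly half above 15%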;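 further: 0% = DMSO wells and 100% = Ran loaded with GDP instead of GTP; wells of about 40 µL received 100 nL stock; the first replicate is given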
# Vif A3G: HIV-1 Vif–A3G interaction blockers – biochemical, TR-FRET, GST-Vif 1-94, biotin-A3G peptide, dose response retest, primary screen (AID 1117319); TR-FRET GST-Vif / biotin-A3G peptide binding; higher % means a stronger effect; test concentration not given here; strong numbers were not always called active; one-dose inhibition, %; IC50 in µM for titrated hits; hit rate 0.57% among 260,000;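 active means above the screen mean plus three standard deviations and confirmed in dose response; inconclusive means results disagree or hit not tested in dose response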;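 further: Vif residues 1-94 fused to GST binding biotinylated APOBEC3G peptide 110-148; 0% = full assay without inhibitor and 100% = GST in place of GST-Vif; retest series ran down from 100 µM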
# B2AR ag: agonists of human beta-2 adrenergic receptor inducing internalization; Am2.2-beta2AR cells, FAP receptor internalization, flow cytometry; reference of the scale not given here; response, % (concentration not given with the values); hit rate 0.43% among 340,000;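 active means response above a set limit, near 3 SD of response in nonfluorescent compounds, cut at about 42% in these data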;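 further: stock transfer was 100 nL into about 11 µL; a reference agonist was the positive control; negative values mostly stem from fluorescent compounds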
# LANA-H2A inh: blocks KSHV LANA binding to histone H2A/H2B; cell-free LANA-H2A/H2B peptide, fluorescence polarization; inhibition, % (concentration not given with the values); hit rate 0.6% among 320,000; in the data active means inhibition mostly above about 10%, no sharp cut-off; inactive means mostly below about 6.7%;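 further: stock transfer was 7.5 nL into about 10 µL; 0% = median of vehicle wells and 100% = median of positive control wells; one replicate is shown; the record names a cut of 25% in any replicate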
# Target sequence (Q9QR71 whole entry, looked up): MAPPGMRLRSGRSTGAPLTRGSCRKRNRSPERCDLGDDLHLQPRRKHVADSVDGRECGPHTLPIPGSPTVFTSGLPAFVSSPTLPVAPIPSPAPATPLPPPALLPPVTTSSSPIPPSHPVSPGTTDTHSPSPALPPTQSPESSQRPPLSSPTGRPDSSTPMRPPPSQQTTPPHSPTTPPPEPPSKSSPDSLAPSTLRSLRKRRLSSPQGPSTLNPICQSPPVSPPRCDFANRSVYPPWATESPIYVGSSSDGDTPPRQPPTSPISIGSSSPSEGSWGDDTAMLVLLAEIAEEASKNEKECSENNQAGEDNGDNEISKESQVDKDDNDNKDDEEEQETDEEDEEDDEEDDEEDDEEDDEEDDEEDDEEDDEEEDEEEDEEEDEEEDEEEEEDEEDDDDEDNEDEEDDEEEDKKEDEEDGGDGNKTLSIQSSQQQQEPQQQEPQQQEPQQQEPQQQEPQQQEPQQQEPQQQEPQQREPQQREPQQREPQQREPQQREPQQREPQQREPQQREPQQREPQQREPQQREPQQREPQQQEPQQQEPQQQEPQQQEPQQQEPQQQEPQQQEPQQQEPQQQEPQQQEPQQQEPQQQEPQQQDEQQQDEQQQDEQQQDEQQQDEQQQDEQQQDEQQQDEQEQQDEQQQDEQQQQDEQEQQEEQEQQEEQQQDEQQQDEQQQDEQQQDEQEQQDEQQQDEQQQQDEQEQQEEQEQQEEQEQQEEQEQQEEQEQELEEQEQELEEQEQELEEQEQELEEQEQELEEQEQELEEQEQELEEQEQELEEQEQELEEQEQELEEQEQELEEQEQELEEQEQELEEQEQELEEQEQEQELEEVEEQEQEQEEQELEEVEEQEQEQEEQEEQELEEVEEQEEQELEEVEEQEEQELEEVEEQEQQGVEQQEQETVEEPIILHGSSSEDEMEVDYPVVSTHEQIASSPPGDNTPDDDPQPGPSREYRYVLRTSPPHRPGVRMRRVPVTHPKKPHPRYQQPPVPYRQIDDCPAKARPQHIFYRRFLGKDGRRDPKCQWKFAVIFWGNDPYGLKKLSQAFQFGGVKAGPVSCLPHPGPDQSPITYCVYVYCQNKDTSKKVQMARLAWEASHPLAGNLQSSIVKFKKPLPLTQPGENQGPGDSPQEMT
# The depositor's hits bear a star; ? = inconclusive; . = not tested or not shown; & = joins results of further samples.
Structure,Calb FLC,ALR H2O2 inh,HNF4A DNA FP,RanGTP-Impb inh,Vif A3G,B2AR ag,LANA-H2A inh
CC1=C(C(=O)Nc2ccccc2C)C(c2ccc(C)o2)n2c(s/c(=C/c3ccccc3)c2=O)=N1 (stereo not given),-1,3,-0.2,-1.0,29%,-5,-2.9
Cc1nc(SC(C)C(=O)NC2CCCC2)c2ccccc2n1 (stereo not given),.,25,2.0,.,-11%,4,2.6
O=S(=O)(NC1CCCCC1N1CCC(O)CC1)c1ccccc1 (stereo not given),-3,-16,3.1,56*,-9%,0,2.8
COc1ccccc1CNC(=O)c1n[nH]c2ccccc12,-6,-7,2.0,-2.3,.,2,1.4
CC(=O)N1c2ccc(S(=O)(=O)N3CCCC(C(=O)Nc4ccc(F)cc4)C3)cc2CC1C (stereo not given),-9,1,-1.2,5.3,.,11,-2.7
Cn1c(SCC(=O)Nc2cccc(Br)c2)nnc1-c1cc2ccccc2o1,12,-8,-2.7,5.5,-64%&-10%,-3,-1.3
CCOC(=O)c1c(N)sc2c1CCN(CCc1ccccc1)C2,-4,-17,23,72*,3%,6,-0.3
O=C(COC(=O)c1ccc(Br)o1)NCc1ccc(Cl)cc1,.,-1,-1.6,.,-2%,-2,-3.0
C=C(C)c1ccc(C(C)(C)NC(=O)N(Cc2ccccc2)Cc2ccco2)cc1,-37,0,1.8,6.1,?,2,-1.8
COc1ccc(/C=N/NC(=O)Nc2nonc2N)cc1,3,-14,1.5,2.4,8%,-5,3.9
O=C1/C(=C/c2cccnc2)Sc2ccccc21,6,6,0.5,?,8%,9,5.9
Cc1ccccc1NC(=O)Nc1ccccc1N1CCCCC1,7,-5,1.1,3.3,.,0,0.8
Cc1cc(C(=O)Nc2ccc(Br)cn2)sc1C,.,8,0.2,.,.,-6,2.0
COc1ccc(/C(C)=N/Nc2ccc(C(=O)O)cc2)cc1OC,2,.,0.6,-2.2,-14%,0,.
CCN1CCN(C(=O)C2CC(c3ccc(F)cc3)=NO2)CC1 (stereo not given),-6,5,1.4,-0.7,1%,-2,0.2
O=C(O)c1cccnc1SCC(=O)N1CCCCCC1,14,-6,-7.7,-38,19%,12,-2.7
CCCn1nnc(NC(=O)COc2ccccc2Cl)n1,-7,-1,-1.6,-4.7,-7%,3,4.9
Cc1cccc2cc(CN(CC(C)C)S(=O)(=O)c3ccccc3)c(=O)[nH]c12,-3,-1,-2.7,-0.9,.,6,-3.0
O=C(NCCN1C(=O)CSC1=O)C1CC(=O)N(c2ccccc2)C1 (stereo not given),-4,-6,-0.3,-0.1,2%,-3,-0.8
O=C(C(c1ccccc1)c1ccccc1)N1CCN(Cc2ccco2)CC1,15,.,-0.8,0.7,0%,0,-4.9
Cc1ccc2nc(SCC(=O)Nc3cc(C)on3)[nH]c2c1,-4,1,-1.9,?,2%,-5,-3.0
O=[N+]([O-])c1ccccc1Oc1ccc(S(=O)(=O)N2CCOCC2)cc1,.,-3,-3.2,.,-10%,11,-3.5
CCCn1c(N)c(N(CCOC)C(=O)COC(=O)CSc2cc(C)c3ccccc3n2)c(=O)[nH]c1=O,1,-2,-2.8,-3.6,1%,12,-5.5
N#CCSc1nnc2ccc3ccccc3n12,21,-7,-0.9,1.1,11%,-9,-1.1
O=c1[nH]c2ccccc2c2nc3ccccn3c12,-1,4,-0.6,?,-3%,-10,-0.5
COc1ccc(NC(=O)COC(=O)c2ccc(Br)o2)cc1OC,-4,-2,-1.6,-0.6,3%,4,3.2
COc1ccc(C2C(C(=O)c3ccco3)=C(O)C(=O)N2CC2CCCO2)cc1OC (stereo not given),2,.,0.5,6.5,.,0,19*
CCC(O)C1CCN(Cc2cn(Cc3ccccc3)nc2-c2cc3ccccc3o2)CC1 (stereo not given),-14,-5,3.5,1.8,20%,10,3.7
Cc1ccc(NC(=S)N2CCC(NC(=O)c3ccc(F)cc3)CC2)cc1,-3,-2,0.0,1.4,.,8,0.6
O=C(CNCc1ccccc1)Nc1ccc(F)cc1,29,-2,-3.5,-2.2,.,-9,0.5
COc1cccc(C(CC(=O)NCc2ccco2)NS(=O)(=O)c2ccc(C)cc2)c1OC (stereo not given),-10,12,0.6,1.5,-7%&-3%,6,3.0
O=C1C2ON(c3ccccc3)C(c3ccccn3)C2C(=O)N1c1ccc(Br)cc1 (stereo not given),-8,0,1.1,-1.4,28%,1,1.6
O=S1(=O)CCOC[C@H](CC2CCCCC2)N1Cc1ccc(Cl)cc1,0,1,1.1,-2.7,.,5,3.3
Cc1ccc(C(=O)N2CCN(c3ccc(NC(=O)c4cccnc4Cl)cc3)CC2)cc1,-8,0,-6.1,2.3,.,5,9.3
O=C(CCn1c(=O)c2ccccc2n(Cc2cccnc2)c1=O)NCc1ccc2c(c1)OCO2,-4,1,2.7,5.8,7%,-2,-2.1
Cc1ccc(C2C(C(=O)c3cc4ccccc4o3)=C(O)C(=O)N2CCN2CCOCC2)o1 (stereo not given),-2,11,1.6,3.8,18%,3,-7.9
S=c1[nH]c(-c2ccccc2)cn1/N=C/c1cccc2ccccc12,-4,4,4.8,-0.4,6%,-1,-0.4
CCC(Br)C(=O)Nc1ccc(OC)cc1 (stereo not given),31,-3,0.8,-3.7,23%,-4,-2.4
NC(=S)Nc1nc2ccccc2[nH]c1=O,-2,2,.,-3.9,19%,.,-1.6
CC(=O)c1ccc(NC(=O)CSc2nnc(NC(=O)c3ccco3)s2)cc1,-4,-5,1.8,-4.6,.,7,-1.0
COc1ccccc1Nc1cc(C)nc(Nc2ccccc2OC)n1,.,.,4.5,.,2%,-1,.
O=C(CNC(=O)c1ccc(-c2ccccc2)cc1)OCc1ccc(Cl)cc1,-6,-2,-1.8,-0.2,-9%,4,-4.0
CCOC(=O)c1sc(NC(=O)CSc2nnnn2-c2ccccc2)c(C(=O)OCC)c1C,-3,0,-0.1,0.9,1%&-1%,2,2.3
CCN1CCN(C(=O)CCN2C(=O)c3ccccc3S2(=O)=O)CC1,7,-5,-1.1,3.4,4%,3,-1.1
COc1cc(C(C)=O)ccc1COc1ccc(C(=O)OCC(N)=O)cc1OC,8,-6,1.2,3.5,18%,2,1.3
COc1ccc(S(=O)(=O)N(C)C[C@H]2Oc3ccc(NS(=O)(=O)c4ccccc4)cc3C(=O)N([C@H](C)CO)C[C@@H]2C)cc1,.,.,-4.6,.,-6%,6,0.5
COc1cc(C2c3c(-c4ccccc4)n[nH]c3C(=O)N2c2ccc(C(=O)O)cc2)ccc1O (stereo not given),4,43,-0.2,7.0,8%,-7,-0.3
CCN(C(=O)CN1C(=O)/C(=C/c2ccc(F)cc2)SC1=S)C1CCS(=O)(=O)C1 (stereo not given),-6,-9,0.7,0.0,3%,-4,-1.6
CC(C)Cc1nnc(NC(=O)CCNC(=O)c2ccco2)s1,-2,-4,1.3,-6.9,.,-2,0.0
CCC(=O)c1ccc(N2CCN(C(=O)c3cc([N+](=O)[O-])ccc3N3CCN(C)CC3)CC2)c(F)c1,-26,-4,-4.2,0.0,5%,-3,-2.4
O=C(NCCc1ccc(Cl)cc1)c1ccc2c(c1)OCCO2,7,7,-7.0,1.6,.,1,-0.7
COCCn1c(=NC(=O)c2cc3ccccc3oc2=O)sc2cc(S(N)(=O)=O)ccc21,-10,2,3.1,1.9,-24%,-21,-3.2
Cc1ccc(O)c(NC(=O)/C=C/C(=O)O)c1,1,67,3.7,?,-14%,6,3.4
O=S(=O)(c1cc(Cl)ccc1Cl)N1CCCCC1,-22,-9,-0.9,5.5,-4%,-4,0.7
CCOC(=O)Nc1ccc(S(=O)(=O)NCCCN2CCOCC2)cc1,7,-14,1.5,6.5,-7%,2,-0.4
O=C(CSc1nnc(-c2ccncc2)n1-c1ccccc1Cl)Nc1ccc(C(=O)O)cc1,6,-2,1.4,-0.5,9%,3,48*
CC1CCCC(C)N1CCCNC(=O)CN1C(=O)COc2ccc(S(=O)(=O)N3CCOCC3)cc21 (stereo not given),-3,-2,1.4,1.8,.,4,-0.9
COc1ccc(C(=O)NCCCN2CCOCC2)cc1OC,30,-31,2.2,0.2,1%,4,-2.7
Cc1ccc(NC(=O)c2ccc(C(=O)c3ccccc3)cc2)nc1,2,37,-0.7,3.4,.,-5,-1.0
O=C(NCCCN1CCN(c2cccc(Cl)c2)CC1)c1cccc(N2CCCC2=O)c1,-18,23,0.5,5.9,15%,2,5.4

# The list continues.
Structure,Calb FLC,ALR H2O2 inh,HNF4A DNA FP,RanGTP-Impb inh,Vif A3G,B2AR ag,LANA-H2A inh
O=C1N(c2ccccc2C(F)(F)F)O[C@]1(c1ccccc1)C1CCCC1,.,-1,0.2,.,.,4,1.7
COc1ccc(NC(=O)Cn2c(=O)c(C)nc3ccccc32)cc1Cl,-4,-5,-2.6,-0.3,-7%,7,1.4
CCc1ccc(S(=O)(=O)/N=C2\C=CC(=O)c3ccccc32)cc1,.,-20,.,.,8.1µM*,.,2.0
COc1ccc(-c2nc(C)sc2C)cc1,-19,.,-0.6,-4.1,30%,-1,-4.5
Cc1ccc(C(=O)CCNc2ccc(Cl)cc2)o1,0,34,-1.2,0.0,-10%,1,-0.6
CCC(C(=O)NCC1CCCO1)N(C(=O)c1snc(C(N)=O)c1N)c1ccc(Cl)cc1 (stereo not given),23,-1,0.7,4.5,-16%,-2,0.7
O=C1COc2ccccc2N1Cc1ccccc1Cl,30,-11,2.6,-2.9,-4%,11,-1.4
Cn1cc[n+](C)c1COc1ccc(C=O)cc1,-5,.,1.5,-2.7,.,-7,3.3
CCOc1ccc(N(CC(=O)NCc2ccc(OC)cc2)S(=O)(=O)c2c(C)[nH]c(=O)[nH]c2=O)cc1,1,-2,0.0,6.4,-11%,1,-1.0
CCC(=O)Nc1ccc(Cl)c(NC(=O)c2cccc(OC)c2)c1,-12,-4,0.8,0.0,-1%,-1,-2.2
COc1ccc(OC)c(NC(=O)Cc2cccs2)c1,-1,-19,1.4,0.1,.,6,-4.2
COc1cc(OC)c(C(=O)NC2CCCCCC2)cc1OC,-2,-5,0.1,-4.9,7%,7,1.0
O=C(CSc1nnc(NC(=O)c2ccccc2)s1)NCc1ccco1,12,-1,0.2,2.2,-9%,0,-3.8
COc1ccc(-c2csc(NC(=O)c3cc(C)oc3C)n2)cc1OC,4,1,12,-1.0,.,25,-1.3
O=C(N=Nc1c(O)[nH]c2ccccc12)c1cc(-c2ccc(F)cc2)n[nH]1,26,9,11,-3.9,-4%,2,5.9
COc1cc2ccccc2c2c1CCCC2=O,5,3,-0.8,3.4,-13%,-3,-3.6
CCn1nc(C(=O)Nc2ccc(C)c(C)c2)c(Cl)c1Cl,9,-13,0.3,-0.6,22%,4,-2.2
COC(C(=O)N1CCC(n2nccc2NC(=O)C2CC2)CC1)c1ccccc1 (stereo not given),-1,-2,-1.3,0.1,-4%,-1,-7.2
CC(=NO)C1CCC2C3CCC4=CC(=NO)CCC4(C)C3C(=O)CC12C (stereo not given),.,.,-0.1,.,-1%,20,.
Cc1ccc(OCC(=O)N2CCN(c3ccc([N+](=O)[O-])c(N4CCOCC4)c3)CC2)cc1,-1,-6,0.8,-3.9,0%,5,-3.5
O=C(O)c1ccc(Cn2cc(C(F)(F)F)ccc2=O)cc1,-6,-1,1.5,-2.4,.,-3,-1.9
COc1ccc(C(=O)N2CCc3cc(OC)c(OC)cc3C2c2cccc([N+](=O)[O-])c2)cc1 (stereo not given),28,.,.,0.3,1%,.,.
CC1CCN(S(=O)(=O)c2ccc(NC(=O)CN3CCN(C)CC3)cc2)CC1,11,-1,1.5,-1.7,-9%&-1%,-7,-0.3
